High-throughput results deposited in PubChem BioAssay by Broad Institute.
T. gondii HeLa: T. gondii ME49Luc in HeLa cells, luciferase assay, 72 h, no IFN-y (AID 1259421); T. gondii ME49Luc in HeLa, luciferase, 72 h, no IFN-y; stronger effect = lower value; reference of the scale and settings of repeat entries not given here; many of its hits are not listed in these tables; hit rate 9.6% among 6,400; activity change, negative = inhibition, %;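 active = activity change below -70%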;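 note: about 20 µM from a 10 mM stock diluted 500-fold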
An asterisk follows results filed as active; & = joins results of further samples; ! = not confirmed by another sample.

structure	T. gondii HeLa
CC(=O)O[C@@H]1CC[C@@]2(C)C(CC[C@]3(C)C2C(=O)C=C2[C@@H]4[C@@H](C)[C@H](C)CC[C@]4(C)CC[C@]23C)[C@@]1(C)C(=O)O (stereo not given in full)	-15
CCCn1c(=O)c(C)cn2nc(N)nc12	8&14
Nc1n[n+]([O-])c2ccccc2[n+]1[O-]	11
CCCc1c(OCCCCc2nn[nH]n2)ccc(C(C)=O)c1O	3
CN([NH2+][O-])c1cc(O)ccc1O	12
Nc1nc(NCCc2ccc(O)cc2)nc2nc(-c3ccco3)nn12	-90*
O=C(Nc1ccccc1)C12CC1/C(=N\O)c1ccccc1O2 (stereo not given)	0&8
Cc1c(C)c2c(c(C)c1O)CCC(C)(C(=O)O)O2 (stereo not given)	6&0
CC[N+](CC)(CCNC(=O)C(=O)NCC[N+](CC)(CC)Cc1ccccc1Cl)Cc1ccccc1Cl	9
CCN1CCCC(OC(=O)C(c2ccccc2)c2ccccc2)C1 (stereo not given)	11&10
CS(=O)(=O)c1ccc(-c2cc(Br)sc2-c2ccc(F)cc2)cc1	25&23
CC(C)=CCCC(C)(OC1OC(COC2OC(CO)C(O)C2O)C(O)C(O)C1O)C1CCC2(C)C1C(O)CC1C3(C)CCC(OC4OC(CO)C(O)C(O)C4OC4OC(CO)C(O)C(O)C4O)C(C)(C)C3CCC12C (stereo not given)	4
O=C(/C=C/c1ccccc1)c1ccc(O[C@@H]2O[C@H](CO)[C@@H](O)[C@H](O)[C@H]2O)cc1O	0
CC(=O)O/N=C1/C(=O)N(Cc2cc(Cl)ccc2Cl)c2ccc(Cl)cc21	-78*
Cc1cccc(-c2[nH]c(C(C)(C)C)nc2-c2ccc3nccnc3c2)n1	-81*
O=S(=O)(NCCCCCCc1ccccc1)c1cccc2c(Cl)cccc12	-2&6
O=C1NCCN1CCN1CCC(c2cn(-c3ccc(F)cc3)c3ccc(Cl)cc23)CC1	7
CC/C=C\C/C=C\C/C=C\C/C=C\C/C=C\CCCC(=O)O	3
CN(C)CCN(Cc1ccccc1)c1ccccn1	2&19
CN(C)Cc1ccc(-c2nc3cccc4c3n2CCNC4=O)cc1	5
CC(=O)NC[C@H]1CN(c2ccc(N3CCN(C(=O)CO)CC3)c(F)c2)C(=O)O1	6
CN1C(=O)C(Cc2c[nH]c3ccccc23)NC1=S (stereo not given)	25
CC(C)(C)CC(C)(C)c1ccc(O)c(-n2nc3ccccc3n2)c1	48
CCN[C@H]1CN(CCCOC)S(=O)(=O)c2sc(S(N)(=O)=O)cc21	19
C=CCNC1=C2C[C@@H](C)C[C@H](OC)[C@H](O)[C@@H](C)/C=C(\C)[C@H](OC(N)=O)[C@@H](OC)/C=C\C=C(/C)C(=O)NC(=CC1=O)C2=O	-56
CC[C@H](C)n1cc(C)c2c(C(=O)NCc3c(C)cc(C)[nH]c3=O)cc(-c3ccc(N4CCNCC4)nc3)cc21	1
c1ccc2c(CCNc3ccc(Nc4ccncc4)cc3)c[nH]c2c1	-40
N#Cc1cc(-c2n[nH]c(-c3ccncc3)n2)ccn1	18
O=C(O)CC1CCC(c2ccc(-c3ccc(Nc4ccc(C(F)(F)F)nc4)cn3)cc2)CC1 (stereo not given)	-4
COc1cc([C@@H]2c3cc4c(cc3C(OC3OC5COC(C)OC5C(O)C3O)C3OCC(=O)[C@@H]32)OCO4)cc(OC)c1O (stereo not given in full)	-24
O=C(/C=C/c1ccccc1)c1ccc(O)cc1	-9
COC(=O)[C@H](NC(=O)c1cc(-c2ccccc2)nc2ccccc12)c1ccccc1	19&10
CN1CCc2cc(Cl)c(O)cc2[C@@H](c2ccccc2)C1	10&21
CC(C)N1c2ccccc2C(c2ccc(F)cc2)C1/C=C/C(O)CC(O)CC(=O)O (stereo not given)	-15
Cn1cncc1[C@@](N)(c1ccc(Cl)cc1)c1ccc2c(c1)c(-c1cccc(Cl)c1)cc(=O)n2C	-56
Clc1ccc(C(Cn2ccnc2)OCc2csc3c(Cl)cccc23)c(Cl)c1 (stereo not given)	-76*
COc1cc(F)c(F)c(Nc2ccc(I)cc2F)c1NS(=O)(=O)C1(C[C@H](O)CO)CC1	6
Nc1nc(-c2ccc(Cl)c(Cl)c2)c(-c2ccncc2)s1	-9
C1=C(CN2CCOCC2)COc2c1cccc2OCC1CNCCO1 (stereo not given)	2
O=C(Nc1ncc([N+](=O)[O-])s1)c1cccs1	454
CN1CC[C@@H](c2c(O)cc(O)c3c(=O)cc(-c4ccccc4Cl)oc23)[C@@H]1CO	-78*
NC(=O)c1ncn([C@@H]2O[C@H](CO)[C@@H](O)[C@H]2O)c1O	26
CC(C)(Oc1ccc(C(=O)c2ccc(Cl)cc2)cc1)C(=O)O	24
CC(=O)OC1CCC2C3CCc4cc(O)ccc4C3CCC12C (stereo not given)	2
CCCCc1cc2ccccc2c(OCCN(C)C)n1	0
CC#C[C@@H](CC(=O)O)c1ccc(OCc2cccc(-c3ccc(C(F)(F)F)cc3)c2)cc1	19
C=C[C@@]1(C)CC(=O)[C@@]2(O)[C@](C)(O1)[C@@H](O)[C@@H](O)C1C(C)(C)CC[C@H](O)[C@@]12C (stereo not given in full)	11
COc1ccc2c3c1O[C@H]1C[C@@H](O)C=C[C@@]31CCN(C)C2	8&9
O=C(Nc1cccc(Cl)c1)c1ccccn1	154
N[C@@H](C(=O)N[C@@H]1C(=O)N2C(C(=O)O)=C(Cl)CS[C@H]12)c1ccccc1	13

(further entries)
structure	T. gondii HeLa
c1ccc(-c2ccc(C(c3ccccc3)n3ccnc3)cc2)cc1 (stereo not given)	-82*!
COCCCOc1ccnc(CS(=O)c2nc3ccccc3[nH]2)c1C (stereo not given)	41&106
O=Cc1ccccc1O[C@@H]1O[C@H](CO)[C@H](O)[C@@H](O)[C@H]1O	5
CCOC(=O)c1c(C)n(C)c2ccc(O)cc12	13&-6
Nc1cc(C(Cl)=C(Cl)Cl)c(S(N)(=O)=O)cc1S(N)(=O)=O	7
CNCCC(Oc1ccccc1OC)c1ccccc1 (stereo not given)	-2&18
CC(=O)O[C@H]1C[C@@H](OC(C)=O)C(C)(C)C2C[C@@H](OC(C)=O)[C@@]3(C)C4=CC(=O)O[C@@H](c5ccoc5)[C@]4(C)CCC3[C@]21C (stereo not given in full)	4
N#CC1(c2ccc(NC(=O)c3cccnc3NCc3ccncc3)cc2)CCCC1	-57
CCNC(=O)CCC(N)C(=O)O (stereo not given)	15
NC(=O)C1CCCN1C(=O)C(Cc1cnc[nH]1)NC(=O)C1CCC(=O)N1 (stereo not given)	2

Part of the list above, field by field:
> Nc1cc(C(Cl)=C(Cl)Cl)c(S(N)(=O)=O)cc1S(N)(=O)=O
- T. gondii HeLa = 7
> CNCCC(Oc1ccccc1OC)c1ccccc1 (stereo not given)
- T. gondii HeLa = -2&18
> CC(=O)O[C@H]1C[C@@H](OC(C)=O)C(C)(C)C2C[C@@H](OC(C)=O)[C@@]3(C)C4=CC(=O)O[C@@H](c5ccoc5)[C@]4(C)CCC3[C@]21C (stereo not given in full)
- T. gondii HeLa = 4
> N#CC1(c2ccc(NC(=O)c3cccnc3NCc3ccncc3)cc2)CCCC1
- T. gondii HeLa = -57

Additional records:
structure	T. gondii HeLa
O=C1C(Cl)=C(NCCN2CCOCC2)C(=O)c2ncccc21	-78*
O=C(O)c1cc2ccccc2s1	23
N[C@@H](CC(=O)N1CCn2c(nnc2C(F)(F)F)C1)Cc1cc(F)c(F)cc1F	4&17
CC(CNC1CCCCC1)OC(=O)c1ccccc1 (stereo not given)	6
CCS(=O)(=O)N1CCC[C@@H]2CN3CCc4cc(OC)ccc4[C@@H]3C[C@@H]21	11&-2
CC1(O)C(O)C(CO)OC1n1ccc(N)nc1=O (stereo not given)	27
COC(=O)C[C@H]1C(C)(C)C(=O)[C@@H]2CC3=C(CC[C@]4(C)C3=CC(=O)O[C@H]4c3ccoc3)[C@@]1(C)C2=O	16
CN[C@H](C(=O)N[C@H](C(=O)N(C)[C@H](/C=C(\C)C(=O)O)C(C)C)C(C)(C)C)C(C)(C)c1ccccc1	-74*
CCCCCCCCCCC(CO)CCCCCCCC (stereo not given)	8
NC(=O)CCC1NC(=O)C(Cc2ccccc2)NC(=O)C(Cc2ccc(O)cc2)NC(=O)CCSSCC(C(=O)N2CCCC2C(=O)NC(CCCN=C(N)N)C(=O)NCC(N)=O)NC(=O)C(CC(N)=O)NC1=O (stereo not given)	8
C=C1/C(=C\C=C2/CCC[C@]3(C)[C@@H]([C@H](C)/C=C/C=C/C(O)(CC)CC)CC[C@@H]23)C[C@@H](O)C[C@@H]1O	18
Cc1nnc(SCC2=C(C(=O)O)N3C(=O)[C@@H](N)[C@H]3SC2)s1	3
CC(C)(C)c1cc(NC(=O)Nc2ccc(-c3cn4c(n3)sc3cc(OCCN5CCOCC5)ccc34)cc2)no1	49
N#Cc1c(N2C[C@@H]3NCCO[C@H]3C2)c(F)cc2c(=O)c(C(=O)O)cn(C3CC3)c12	4
COc1ccc(-c2nc(N3CCOCC3)c3sc(CN(C)c4ncc(C(=O)NO)cn4)cc3n2)cn1	-89*
CN(C)CCOc1ccc(-c2nc(-c3ccc4c(c3)CC/C4=N\O)c(-c3ccncc3)[nH]2)cc1	-77*
CCc1cnc(N2CCC(c3nc(COc4ccc(-n5cnnn5)cc4)cs3)CC2)nc1	-26
C=C1C2=CC(=O)O[C@@H](c3ccoc3)[C@]2(C)CCC1[C@@]1(C)C=CC(=O)C(C)(C)[C@@H]1CC(=O)OC (stereo not given in full)	-7
CC(=O)OC1CC2CCC1(C)C2(C)C (stereo not given)	11
NC1=NCN([C@H]2C[C@@H](O)[C@@H](CO)O2)C(=O)N1	14
COc1cc(N2CCC(N)CC2)ccc1Nc1ncc(Cl)c(-c2c[nH]c3ccccc23)n1	-81*
O=C(O[C@H]1CN2CCC1CC2)N1CCc2ccccc2[C@@H]1c1ccccc1	-5
NC(Cn1ccc(=O)n(Cc2ccccc2C(=O)O)c1=O)C(=O)O (stereo not given)	7
COc1ccc([C@H]2Oc3cc(OC)cc(OC)c3C[C@H]2O)cc1	-3
CN1C(C)(C)CCCC1(C)C	8
C[Se]CC[C@H](N)C(=O)O	21
Cc1c(CC(C)(C)C(=O)O)n(Cc2ccc(Cl)cc2)c2ccc(F)cc12	-5&13
Cc1cc(-c2cc(OC(=O)c3ccccc3)ccc2Cl)cc2nnc(Nc3ccc(OCCN4CCCC4)cc3)nc12	8
CC(=O)OCC(=O)[C@@]1(O)CCC2C3C[C@H](C)C4=CC(=O)C=CC4(C)C3[C@@H](O)CC21C (stereo not given in full)	-7
COc1cnc(-n2cnc(C)n2)c2[nH]cc(C(=O)C(=O)N3CCN(C(=O)c4ccccc4)CC3)c12	22
Clc1cccc(C=NC=Nc2cccc(Cl)c2)c1	-3
N[C@@H](COP(=O)(O)O)C(=O)O	8
Cc1cc2cc3c(C)cc(=O)oc3c(C)c2o1	21&7
O=C1NCN(c2ccccc2)C12CCN(CCCC(c1ccc(F)cc1)c1ccc(F)cc1)CC2	-27
NC(=O)NS(=O)(=O)c1ccc(N)cc1	10
O=[N+]([O-])c1cccc2cn[nH]c12	-1&15&-15
CCN(CC)Cc1ccc2cc(COC(=O)Nc3ccc(C(=O)NO)cc3)ccc2c1	-81*
CN(Cc1ccccc1)C(=O)[C@H](Cc1ccc2ccccc2c1)NC(=O)[C@@H]1CCCN1C(=O)Nc1ccccc1[N+](=O)[O-]	21
O=C(O)c1cc2cccc([N+](=O)[O-])c2[nH]1	9
COc1cc(C(C)=O)cc(OC)c1O	-2
O=C(/C=C/c1c(C(=O)O)[nH]c2cc(Cl)cc(Cl)c12)Nc1ccccc1	9
N[C@@H]1CCCN(c2c(/C=C3\SC(=O)NC3=O)cccc2-c2ccccc2)C1	-6
CCS(=O)(=O)N(C)[C@H]1c2cc(C#N)ccc2OC(C)(C)[C@@H]1O (racemic)	10
CC(C)(C)c1ccc(/C=C/C(=O)Nc2ccc3c(c2)OCCO3)cc1	-19&-51
COc1c(-c2ccc3cc(NS(C)(=O)=O)ccc3c2)cc(-n2ccc(=O)[nH]c2=O)cc1C(C)(C)C	18
OC(c1ccccc1)C1CCN(CCc2ccccc2)CC1 (stereo not given)	1&5
CCCCCCOc1nsnc1C1=CCCN(C)C1	-27
COc1ccc(NC(=O)c2ccc(-c3ccc(-c4noc(C)n4)cc3C)cc2)cc1N1CCN(C)CC1	-79*!
CNC(=O)c1ccccc1Nc1nc(Nc2ccc3c(c2OC)CCC[C@H](N2CCN(CCO)CC2)C3)ncc1Cl	-75*
N#C/C(=C\c1ccc(O)c(O)c1)C(=O)OCCc1cccs1	3

Some of the entries so far, as labelled records:
c1ccc(-c2ccc(C(c3ccccc3)n3ccnc3)cc2)cc1 (stereo not given)
  T. gondii HeLa: -82*!

COCCCOc1ccnc(CS(=O)c2nc3ccccc3[nH]2)c1C (stereo not given)
  T. gondii HeLa: 41&106

(list continues)
structure	T. gondii HeLa
CCCCOc1ccc(C(=O)CCN2CCCCC2)cc1	1
O=C(Nc1cccnc1)N1CCC(Cc2cccc(Oc3ccc(C(F)(F)F)cn3)c2)CC1	-53
COc1ccc(-c2cc(=O)c3c(O)cc(OC)c(OC)c3o2)c(OC)c1	13
S=c1nc[nH]c2[nH]ncc12	-6
CC(C)(CO)Cc1cc(C(C)(C)C)c(O)c(C(C)(C)C)c1	11&16
C[C@]12C=CC(=O)C=C1CCC1C2[C@@H](O)C[C@@]2(C)C1CC[C@]2(O)C(=O)COP(=O)(O)O (stereo not given in full)	-9&0

A portion of the library; rates above refer to the full screens.
